Bioassay records as filed in PubChem.
GIRK2 act: GIRK2 channel activation; AID 1259325; calls only for hits at 25 µM; HEK293-GIRK2 thallium flux, Thallos fluorescence; P48051; 63,000 tested, 0.05% active;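 active = among the strongest 0.2% of first-round signals and kept after retests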;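 also: first round at about 10 µM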
Target sequence (P48051 whole entry, looked up): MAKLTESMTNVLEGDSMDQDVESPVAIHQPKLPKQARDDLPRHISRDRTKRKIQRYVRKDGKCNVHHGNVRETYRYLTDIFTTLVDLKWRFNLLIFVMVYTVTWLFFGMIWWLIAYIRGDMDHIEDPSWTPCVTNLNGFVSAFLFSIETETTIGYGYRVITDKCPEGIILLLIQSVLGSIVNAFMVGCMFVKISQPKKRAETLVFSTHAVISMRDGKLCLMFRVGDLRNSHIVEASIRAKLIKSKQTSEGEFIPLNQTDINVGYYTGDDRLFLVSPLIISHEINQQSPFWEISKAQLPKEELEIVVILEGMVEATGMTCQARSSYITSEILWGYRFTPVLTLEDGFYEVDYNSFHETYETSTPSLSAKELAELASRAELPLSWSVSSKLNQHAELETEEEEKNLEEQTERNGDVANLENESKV
Calls only; i = inactive. The list is partial; count on the stated rates, not on these rows.

SMILES	GIRK2 act
CCCCC[C@H](O)/C=C/[C@@H]1[C@H](CCCCCCC(=O)O)[C@H](O)C[C@H]1O	i
COC(=O)c1ccc(C(=O)N(Cc2ccsc2)CC(F)(F)F)cc1	i
COc1cccc2cc(C(=O)NCCC3CCCCN3S(=O)(=O)c3ccc(C)cc3)oc12 (centres undefined)	i
Cc1cc(=O)[nH]c(-n2ncc(C(=O)Nc3ccc(F)cc3F)c2C)n1	i
O=C(NCc1cccs1)Nc1nc2cc3c(cc2s1)OCCO3	i
O=C(CCC(=O)N1CCCC(COCc2ccccc2)C1)c1ccccc1 (centres undefined)	i
O=C(NCc1cccs1)NCC(O)(c1ccccc1)C1CC1 (centres undefined)	i
COc1ccc(-n2c(C)c(C)n3c4c(=O)n(Cc5ccccc5)c(=O)n(C)c4nc23)cc1	i
COC(=O)c1ccc(C(=O)OC)c(NCc2cc(=O)oc3cc(C)c(O)cc23)c1	i
CC(CNC(=O)CCc1nnc2n(Cc3ccc(Cl)cc3)c(=O)c3ccccc3n12)c1ccccc1 (centres undefined)	i
CCn1c(=O)c2c(nc3n(CCN4CCOCC4)c(C)cn23)n(C)c1=O	i
COc1cccc(C2C(=C(O)c3ccc(OC)c(C)c3)C(=O)C(=O)N2c2cc(C)on2)c1 (centres undefined)	i
CCOC(=O)c1ccc(Nc2c(C(=O)N3CCSCC3)cnc3nc(C)ccc23)cc1	i
O=S(=O)(C1CC1)N1CCC(Cn2ccnc2)CC1	i
COc1ccc(Cl)cc1C(=O)N1CCC(c2nn(C)c(=O)n2-c2ccccc2)CC1	i
COc1ccc(NC(=O)CSc2nnc(N3CCN(c4ccc(F)cc4)CC3)s2)c(OC)c1	i
Cc1nc(N2CCC(C(N)=O)CC2)c2oc3ccccc3c2n1	i
O=C(/C=C/c1ccc(F)cc1)N1CCN(c2ccc(-c3ccc4c(c3)OCO4)nn2)CC1	i
O=c1[nH]c2nc(NC3CCc4ccccc43)ncc2c(=O)n1-c1ccccc1 (centres undefined)	i
CCN(CC)CCN(C(=O)c1ccco1)c1nc2c(S(C)(=O)=O)cccc2s1	i
O=C(Nc1cccs1)N1CCN(c2nc3ccccc3s2)CC1	i
O=C(Nc1cccc(Cl)c1)Nc1nc(CCC(=O)N2CCc3ccccc32)cs1	i
O=C(c1cc(-c2ccco2)on1)N1CCN(C2=NN=C(c3ccccc3)CS2)CC1	i
O=C(OCC1=CC(O)C2C=CO[C@@H](O[C@@H]3O[C@H](CO)[C@@H](O)[C@H](O)[C@H]3O)C12)c1ccccc1 (some centres undefined)	i
Cc1cc(C)cc(-n2ccn(Cc3nc(-c4ccc(C(C)(C)C)cc4)no3)c(=O)c2=O)c1	i
Other structures follow:
SMILES	GIRK2 act
Cc1ccccc1CSC1=NCCN1S(=O)(=O)c1ccc(Cl)cc1	i
Cc1cc(O)c(C2OC(=O)c3ccccc32)c(=O)n1CCO (centres undefined)	i
O=C(Cn1cnc2c(-c3ccc(Cl)cc3)csc2c1=O)NCc1ccccc1	i
Cc1cccc(C(=O)Nc2c(C(=O)NCc3cccs3)[nH]c3ccc(C)cc23)c1	i
Cc1ccccc1-c1noc(-c2nnn(-c3ccc(F)c(Cl)c3)c2C)n1	i
COc1ccccc1S(=O)(=O)NCc1ccc(C(=O)c2cccs2)s1	i
Cc1cccc(-n2c(N3CCCC3)nc3cc(C(=O)N4CCN(c5ccccc5)CC4)ccc3c2=O)c1	i
Cc1ccc(C)c(S(=O)(=O)NCc2ccc(C(=O)N3CCN(C)CC3)cc2)c1	i
Cc1ccnc(Nc2nc(CC(=O)NCCSc3nncn3C)cs2)c1	i
Cc1cc(C)c(S(=O)(=O)Nc2cccc3ccccc23)c(C)c1	i
CC(C)C(=O)Nc1cnc(N2CCOCC2)nc1	i
C=CCn1c(SCC(=O)Nc2nc(-c3ccccc3)ns2)nc2sc3c(c2c1=O)CCC3	i
COc1ccc(CCNC(=O)COc2cc(=O)n3ccccc3n2)cc1	i
Cc1cc(C)c(C)c(S(=O)(=O)Nc2ccc3c(c2)OCO3)c1C	i
COCCN(Cc1ccoc1)C(=O)COc1ccccc1F	i
COc1ccc(S(=O)(=O)Nc2cccc(C(=O)Nc3sc4c(c3C(N)=O)CCCC4)c2)cc1	i
CCc1ccc(Oc2cc(N3CCC(C(=O)N4CCN(C5CCCCC5)CC4)CC3)ncn2)cc1	i
CCCN1C(=O)CCc2cc(NC(=O)NCCc3ccc(OC)cc3)ccc21	i
Cc1ccc(S(=O)(=O)Nc2ccc3c(c2)N(S(=O)(=O)c2ccccc2)CCC3)cc1C	i
Cc1nc(NC(=O)c2c[nH]c3ccc(F)cc3c2=O)sc1C	i
O=C(CSc1ncccc1-c1nc(C2CC2)no1)Nc1ccc2c(c1)OCCO2	i
CCOC(=O)C1CCc2sc(NC(=O)c3csc(-c4cc5ccccc5[nH]4)n3)nc21 (centres undefined)	i
Cc1cc(OCC(=O)Nc2ccccc2)nc(N2CCC(C)CC2)n1	i
Cc1ccc(N(C(=O)c2cc(Cl)ccc2[N+](=O)[O-])C(=O)N2CCCCC2)cc1	i
CS(=O)(=O)CCn1c(=O)c(Oc2ccc(F)cc2F)cc2cnc(NC3CCOCC3)nc21	i
Carrying on.
SMILES	GIRK2 act
Cc1csc(COc2ccc(C(=O)Nc3cccc4nc(C)ccc34)cc2)n1	i
CCCCNC(=O)c1c(N)n(/N=C\c2ccc(OC)c(OC)c2)c2nc3ccccc3nc12	i
COCCNC(=O)c1ccc(=O)n(C)n1	i
O=C(N1CCN(c2ncnc3c2nnn3-c2ccc(Cl)cc2)CC1)C12CC3CC(CC(C3)C1)C2	i
CC(=O)N1CCc2c(sc(NC(=O)C(C)(C)C)c2-c2nc3ccccc3s2)C1	i
CCN(CC)CCCCNc1ncc2cc(-c3cc(OC)cc(OC)c3)c(NC(=O)NC(C)(C)C)nc2n1	i
O=S(=O)(NCCC(O)c1ccc2c(c1)OCO2)c1ccc(N2CCCCS2(=O)=O)cc1 (centres undefined)	i
Cc1noc(-c2ccc(NC(=O)c3cccs3)cc2)n1	i
CC1CCCCN1c1nc2c(c(=O)[nH]c(=O)n2C)n1Cc1ccccc1Cl (centres undefined)	i
COc1ccc(OCc2noc(CNC(=O)C3(c4ccccc4)CCOCC3)n2)cc1	i
CSc1ccccc1NC(=O)c1c(F)cccc1Cl	i
O=C(c1cccc2ccccc12)N1CCN(c2ncnc3c2nnn3-c2ccccc2)CC1	i
O=C(NCCOc1ccc2c(c1)OCO2)c1ccc(Cl)c([N+](=O)[O-])c1	i
COc1ccc(C(=O)N2CCN(c3oc(-c4ccccc4OC)nc3C#N)CC2)cc1OC	i
Cc1ccc(C(O)CNC(=O)c2ccc(C#N)cc2)o1 (centres undefined)	i
COc1ccccc1-n1ncc2c(C)nnc(SCC(=O)NCc3ccc(F)cc3)c21	i
Cc1nn(C)cc1C(=O)NCCc1ccc(S(N)(=O)=O)cc1	i
O=C1/C(=C\c2ccccn2)Oc2cc(O)ccc21	i
Cn1cc(C(=O)NC2CC(O)C(CO)C2)nn1 (centres undefined)	i
O=c1c2ccccc2n(Cc2nc(-c3cccs3)no2)c(=O)n1CC1CCCO1 (centres undefined)	i
CCOc1ccc(C(=O)Nc2ccc3c(c2)CCC(=O)N3Cc2ccccc2)cc1	i
CNc1c(C=O)c(=O)n(C)c(=O)n1C	i
O=C(NCC(F)(F)F)c1nnn(-c2ccc(NC(=O)c3cccc4ccccc34)cc2)n1	i
N#Cc1c(NC(=O)c2ccccc2F)sc2c1CCCC2	i
COc1cc(C)c(C(C)C)cc1S(=O)(=O)N1CCCCC1	i
Other structures:
SMILES	GIRK2 act
Cc1nc(-c2ccccc2Cl)sc1CNC(=O)Cn1cnc(C)c(C)c1=O	i
Cn1c(N)c(C(=O)NCC2CCCO2)c2nc3ccccc3nc21 (centres undefined)	i
COc1ccc(NC(=O)CCn2cnc3c([nH]c4cc(OC)c(OC)cc43)c2=O)c(OC)c1	i
O=C(Cn1c(=O)cnc2cc(S(=O)(=O)N3CCCCC3)ccc21)NCc1ccc2c(c1)OCO2	i
Cc1ccc(S(=O)(=O)Nc2ccc(S(=O)(=O)N3CCC(C)CC3)cc2)cc1	i
CCCC(=O)NCCCS(=O)(=O)N1CCN(c2ccccc2F)CC1	i
COC(=O)N1CCc2ccccc2C1C(=O)N1CCCc2ccccc21 (centres undefined)	i
CCCN1CCc2nc(SCc3c(C)cc(C)cc3C)[nH]c(=O)c2C1	i
C=C(C)Cn1c(N2CCN(c3ccc(OC)cc3)CC2)nc2c1c(=O)n(C)c(=O)n2C	i
Cc1cc(NC(=O)C2CCN(C(=O)c3ccc4nsnc4c3)CC2)no1	i
O=C(CSC1CCCC1)N1CCN(C(=O)C2CC2c2ccc3c(c2)OCO3)CC1 (centres undefined)	i
COc1ccc(C(=O)Nc2cc(C)nc3c(C)cc(C)cc23)cc1OC	i
Cc1ccc2cc(CNc3ccccc3)c(=O)n(CC(=O)Nc3ccc(Cl)cc3)c2c1	i
CSc1ccccc1NC(=O)c1cc2c(=O)n(C)c(=O)n(C)c2n1Cc1ccccc1	i
COCCNC(=O)Nc1cccc(N2CCCC2=O)c1	i
COc1ccc(OC)c(NC(=O)CSC2=NNC3C4CC(c5ccccc5)NN4C=CN23)c1 (centres undefined)	i
CCOCCn1c(-n2nc(C)cc2C)nc2c1c(=O)n(CCN1CCOCC1)c(=O)n2C	i
CCOc1ccc(CNC(=O)c2cc(-c3sc(C)nc3C)[nH]n2)cc1OCC	i
CCOCC(=O)N1CCOCC1CN(C)C (centres undefined)	i
Cc1nnc(SCC(=O)Nc2ccc(S(N)(=O)=O)cc2)[nH]c1=O	i
O=c1cc(CN2CCC(Cc3ccccc3)CC2)c2cc3c(cc2o1)OCO3	i
CCC(C)Nc1ncc([N+](=O)[O-])c(N)n1 (centres undefined)	i
O=S(=O)(Cc1ccc(Cl)cc1)c1ccc(N2CCN(c3ccccc3)CC2)nn1	i
CCCCn1c(C2CC(=O)N(c3ccc(Cl)c(C)c3)C2)nc2ccccc21 (centres undefined)	i
COc1cc(OC)c(OC)cc1/C=C1\Oc2cc(OC(C)=O)ccc2C1=O	i

2 successive records from above, for reference:
SMILES	GIRK2 act
Cc1ccc(S(=O)(=O)Nc2ccc(S(=O)(=O)N3CCC(C)CC3)cc2)cc1	i
CCCC(=O)NCCCS(=O)(=O)N1CCN(c2ccccc2F)CC1	i

Going on with the list:
SMILES	GIRK2 act
O=C(c1cccs1)N1CCC(Cn2c(COc3ccccc3)nc3ccccc32)CC1	i
O=S(=O)(c1cccs1)N1CCC(Cn2ccc3ccccc32)CC1	i
COc1cccc(CSc2nc(CC(=O)Nc3cccc(C(C)=O)c3)cc(=O)[nH]2)c1	i
COc1cccc(-c2cn3c(C(=O)Nc4ccc(S(N)(=O)=O)cc4)csc3n2)c1	i
Cc1ccnc(C(=O)N2CCN(c3ccc(Nc4ccncc4)nn3)CC2)n1	i
O=C(Cc1ccc(F)cc1)Nc1ccc(CN2CCN(c3ccccn3)CC2)cc1	i
O=C1CC(NC(=O)C2(c3ccccc3)CCOCC2)CN1C1CC1 (centres undefined)	i
O=C(NCCc1c[nH]c2ccccc12)c1ccc(OCc2nc(-c3ccco3)cs2)cc1	i
COc1ccc(OC)c(-c2cc(C(=O)NCC(c3cn(C)c4ccccc34)N(C)C)n(C)n2)c1 (centres undefined)	i
Cc1noc(C)c1S(=O)(=O)N1CCCC(c2nnc(-c3cccs3)o2)C1 (centres undefined)	i
O=S(=O)(Cc1cccc(F)c1)NCC1COC2(CCCCC2)O1 (centres undefined)	i
Cc1ccc2[nH]c(C(=O)NCc3ccccn3)c(NC(=O)c3ccc(Cl)cc3)c2c1	i
Cc1cc(=O)[nH]c(-n2nc(-c3cccs3)cc2NC(=O)c2ccccc2C(F)(F)F)n1	i
O=C(Nc1cccc([N+](=O)[O-])c1)C1=Cc2ccccc2OC1	i
COc1ccccc1-n1nnc(C(=O)NC(C)c2ccco2)c1-c1ccccn1 (centres undefined)	i
Cc1cccc(-n2cc(C(=O)OCC(=O)OC(C)(C)C)c3ccccc3c2=O)c1	i
C=CCn1c(=S)[nH]c2cc(C(=O)N3CCCC3)ccc2c1=O	i
COc1ccccc1-c1noc(Cn2nc(-c3ccc(C)cc3)ccc2=O)n1	i
CCOC(=O)c1ccc(N2C=C(C#N)S(=O)(=O)c3ccc(F)cc32)cc1	i
CCOC(=O)c1oc2cc(OCC(=O)c3ccc(OC)cc3)ccc2c(=O)c1-c1ccc(OC)cc1	i
Cc1ccc(C(O)CNC(=O)Nc2ccc(C(F)(F)F)cc2)o1 (centres undefined)	i
NC(=O)c1c(NC(=O)CCCSc2ccccc2)sc2c1CCC2	i
CNCCCn1cc(C2=C(c3cn(C)c4ccccc34)C(=O)NC2=O)c2ccccc21	i

Gathered by group: those above with a thiophene ring, fused or not.
SMILES	GIRK2 act
COC(=O)c1ccc(C(=O)N(Cc2ccsc2)CC(F)(F)F)cc1	i
O=C(NCc1cccs1)Nc1nc2cc3c(cc2s1)OCCO3	i
O=C(NCc1cccs1)NCC(O)(c1ccccc1)C1CC1 (centres undefined)	i
O=C(Nc1cccs1)N1CCN(c2nc3ccccc3s2)CC1	i
O=C(Cn1cnc2c(-c3ccc(Cl)cc3)csc2c1=O)NCc1ccccc1	i
Cc1cccc(C(=O)Nc2c(C(=O)NCc3cccs3)[nH]c3ccc(C)cc23)c1	i
COc1ccccc1S(=O)(=O)NCc1ccc(C(=O)c2cccs2)s1	i
C=CCn1c(SCC(=O)Nc2nc(-c3ccccc3)ns2)nc2sc3c(c2c1=O)CCC3	i
COc1ccc(S(=O)(=O)Nc2cccc(C(=O)Nc3sc4c(c3C(N)=O)CCCC4)c2)cc1	i
CC(=O)N1CCc2c(sc(NC(=O)C(C)(C)C)c2-c2nc3ccccc3s2)C1	i
Cc1noc(-c2ccc(NC(=O)c3cccs3)cc2)n1	i
O=c1c2ccccc2n(Cc2nc(-c3cccs3)no2)c(=O)n1CC1CCCO1 (centres undefined)	i
N#Cc1c(NC(=O)c2ccccc2F)sc2c1CCCC2	i
O=C(c1cccs1)N1CCC(Cn2c(COc3ccccc3)nc3ccccc32)CC1	i
O=S(=O)(c1cccs1)N1CCC(Cn2ccc3ccccc32)CC1	i
Cc1noc(C)c1S(=O)(=O)N1CCCC(c2nnc(-c3cccs3)o2)C1 (centres undefined)	i
Cc1cc(=O)[nH]c(-n2nc(-c3cccs3)cc2NC(=O)c2ccccc2C(F)(F)F)n1	i
NC(=O)c1c(NC(=O)CCCSc2ccccc2)sc2c1CCC2	i
